High-throughput results deposited in PubChem BioAssay by National Center for Advancing Translational Sciences (NCATS).
Vaccinia mCherry – qHTS for Stage-Specific Inhibitors of Vaccinia Orthopoxvirus: mCherry Reporter Primary qHTS | Vaccinia virus mCherry reporter infection, fluorescence; about a quarter of the inactives have no number | AID 720579, 2013 | Potency, µM (titrated, usually from 36.5 µM), without a hit: top-dose activity change, negative = inhibition, hits mostly inhibitors | 0.63% of 310,000 active; active = well fitted inhibition curve with a large enough effect; inconclusive = small, poorly fitted or top-dose-only effect; inactive = no such curve, though single readings can be large or run the other way; tested in A549 cells; further: nearly all actives have a fitted effect of over 35% in size; inactives centre near -10
VACV Venus inh – qHTS for Stage-Specific Inhibitors of Vaccinia Orthopoxvirus: Venus Reporter Primary qHTS | Vaccinia virus Venus reporter expression, fluorescence | Potency, µM (titrated, usually from 36.5 µM), without a hit: top-dose activity change, negative = inhibition, usual class: inhibitors | 0.46% of 330,000 active | AID 720580, 2013; active means well fitted inhibition curve with a large enough effect; inconclusive means small, poorly fitted or top-dose-only effect; inactive means no such curve, though single readings can be large or run the other way; tested in A549 cells; further: nearly all actives have a fitted effect of over 30% in size; inactives centre near -10
Starred values were filed as active, the others as inactive; i = inactive; u = inconclusive; x = not tested or not shown; [ ] = remark or other dose. On the % scale 0 is the no-effect control and ±100 the full control effect; potency means the concentration at half of the fitted maximal effect.

SMILES	Vaccinia mCherry	VACV Venus inh
CC1(c2ccc(Cl)cc2Cl)NC(=O)N(CC(=O)N2CCN(C(=O)c3ccco3)CC2)C1=O (stereo not drawn)	i	-18%
Cc1ccc(NC(=O)Cn2cc(C(=O)C3CCCCC3)c3ccccc32)c(C)c1	4%	-14%
O=C(OCC(=O)N1CCc2ccccc2C1)c1ccc(F)cc1Cl	i	-19%
COc1ccc(/C(C)=N\O)cc1OC	-19%[7.34 µM]	-6%[7.34 µM]
CC(C)c1ccc(NC(=O)CN2C(=O)NC3(CCCC3)C2=O)cc1	-16%	-10%
COC(=O)c1cc(OC)cc(O)c1C(=O)c1c(O)cc(C)cc1O	18%	6%
O=C(Cn1cc(C(=O)c2ccco2)c2ccccc21)Nc1ccccc1Cl	-21%	-27%
CCc1nn2c(=O)cc(COC(=O)c3ccco3)nc2s1	-2%	1%
O=C(COC(=O)Cc1ccc(Cl)cc1Cl)Nc1ccc(OC(F)F)cc1	-14%	0%
COc1ccc(Nc2cc(C)c3cc(NC(=O)COc4cccc(C)c4)ccc3n2)cc1	u	u
COc1ccc(NC(=O)CN2CCc3ccccc3C2)cc1S(=O)(=O)N1CCOCC1	-19%	-13%
COc1ccccc1NC(=O)C1=C(C)Nc2ncnn2C1c1cccs1 (stereo not drawn)	x	-12%
COc1ccc(C(=O)NCCCc2nc3ccccc3n2Cc2ccccc2C)cc1OC	u	-28%
Cc1ccnc(NC(=O)Cc2c(F)cccc2Cl)c1	-7%	-20%
Cc1cc(C)n(C(C)CC(=O)Nc2ccc(-c3ccno3)cc2)n1 (stereo not drawn)	-20%	-16%
Cc1cccc2sc(N(Cc3cccnc3)C(=O)c3cccs3)nc12	-6%	-11%
CC(C)C(=O)N(Cc1ccc(F)cc1)Cc1nc2ccccc2c(=O)[nH]1	i	0%
COCCNC(=S)Nc1cc(S(=O)(=O)N2CCOCC2)ccc1N1CCCCC1	-4%	-11%
CCCS(=O)(=O)NC(=O)C1(C)CCN(C(=O)c2ccc(C(F)(F)F)nc2C)C1 (stereo not drawn)	6%	0%
COc1ccc(CNC(=O)c2ccc3c(c2)NC(=O)C(CS(=O)(=O)Cc2ccccc2Cl)N3)cc1 (stereo not drawn)	8%	4%
Cc1ccc(-c2nc3cccc(C)n3c2Nc2ccc3c(c2)OCO3)o1	-13%	-9%
CC1CN(S(=O)(=O)c2ccc(C(=O)NN3CCN(C)CC3)cc2)CC(C)O1 (stereo not drawn)	-6%	-8%
CC/C(C)=N/Nc1nc2sc3c(c2c(=O)[nH]1)CC(C)(C)OC3	x	-19%
Fc1ccccc1-c1n[nH]c(=S)n1CC1CCCO1 (stereo not drawn)	1%	5%
Fc1ccc(N2CCN(c3ncnc4nc[nH]c34)CC2)cc1	u	-14%

6 entries picked at random from the list so far:
SMILES	Vaccinia mCherry	VACV Venus inh
COCCNC(=S)Nc1cc(S(=O)(=O)N2CCOCC2)ccc1N1CCCCC1	-4%	-11%
CC(C)C(=O)N(Cc1ccc(F)cc1)Cc1nc2ccccc2c(=O)[nH]1	i	0%
Cc1ccc(-c2nc3cccc(C)n3c2Nc2ccc3c(c2)OCO3)o1	-13%	-9%
Cc1cc(C)n(C(C)CC(=O)Nc2ccc(-c3ccno3)cc2)n1 (stereo not drawn)	-20%	-16%
CCCS(=O)(=O)NC(=O)C1(C)CCN(C(=O)c2ccc(C(F)(F)F)nc2C)C1 (stereo not drawn)	6%	0%
COc1ccccc1NC(=O)C1=C(C)Nc2ncnn2C1c1cccs1 (stereo not drawn)	x	-12%

(more compounds)
SMILES	Vaccinia mCherry	VACV Venus inh
C=CCN(C(=O)c1csnn1)C(C(=O)NC1CCCC1)c1c(F)cccc1Cl (stereo not drawn)	0%	11%
CNC(CC(=O)O)C(=O)O (stereo not drawn)	-8%	-6%
Cc1cc(NC(=O)COC(=O)c2c(C)nn(Cc3ccccc3)c2C)no1	x	-13%
CCOC(=O)C1CCCN(C(=O)CN2C(=O)/C(=C/c3ccc(OC)cc3)Oc3ccccc32)C1 (stereo not drawn)	u	u
CCOC(=O)C1CCN(c2ncnc3nc[nH]c23)CC1	-2%	-8%
COCC(=O)N1CCC(Oc2ccc(C(=O)NC3Cc4ccccc4C3)cc2)CC1	-10%	-7%
COc1ccc(C2=C(Nc3ccc(C)c(C)c3)c3ccccc3C2=O)cc1	-9%	0%
O=S(=O)(c1ccc2c(c1)CCN2)N1CCCCCC1	-8%[7.34 µM]	-8%[7.34 µM]
Brc1ccc2c(c1)[C@H]1OCC[C@H]1[C@@H](c1cccs1)N2	u	-16%
NC(Cc1ccc(O)cc1)c1cn([C@@H](CCC(=O)O)C(=O)N2CCNCC2)nn1 (stereo partly drawn)	-10%	-6%
CCOc1ccc(N(C)C(=O)CS(=O)(=O)c2cccc3nsnc23)cc1	-1%	7%
Cc1ccc(OCc2n[nH]c(=S)n2C2CCCCC2)cc1	-1%	-8%
c1ccc(-c2noc(CN3CCOCC3)n2)cc1	3%	4%
CCn1c(CN2CCCCC2)nc2cc(NC(=O)COc3ccc([N+](=O)[O-])cc3)ccc21	u	-23%
CCc1ccc(N2C(=O)CN(S(=O)(=O)CC)CC2(C)C(=O)NC2CCCCC2)cc1 (stereo not drawn)	-11%	-6%
O=C(NCC1Cc2cc(F)cc(-c3cnccn3)c2O1)c1cccc(-c2ccccc2F)c1 (stereo not drawn)	i	-13%
O=C(O)c1ccc([N+](=O)[O-])nc1	i	-4%
COc1ccccc1N1CCN(c2ccc([N+](=O)[O-])cc2Cl)CC1	u	u
O=C(Nc1ccc2c(c1)OCO2)Nc1cnccn1	-6%	-16%
CCOc1ccc(C(=O)CCC(=O)NC(CC(C)C)C(=O)OC)cc1 (stereo not drawn)	-1%	-7%
CCC(CC)C(=O)Nc1ccc(-c2cn3cccnc3n2)cc1	-11%	1%
Clc1ccc(N(CC2CO2)CC2CO2)cc1 (stereo not drawn)	-27%	-6%
O=C(CCc1nc2ccccc2n1-c1ccccc1)NCCO	-9%	7%
CS(=O)(=O)NCCNc1ncc(C(F)(F)F)cc1Cl	-22%	-14%
Cc1[nH]nc2c1C(c1ccc(F)cc1)C(C#N)=C(N)O2 (stereo not drawn)	-11%	-4%

The listing continues:
SMILES	Vaccinia mCherry	VACV Venus inh
COc1ccc(S(=O)(=O)N(C)c2ccc(C(=O)NCC3CCCO3)cc2)cc1 (stereo not drawn)	i	-7%
CCOC(=O)c1c(NC(=O)CN2C(=O)NC3(CCC(C)CC3)C2=O)sc(C)c1CC (stereo not drawn)	u	-15%
CCC(C)NC(=O)c1ccc(CSCc2ccccc2Cl)o1 (stereo not drawn)	i	-21%
Cc1c(C(=O)OC2CCC(C)CC2)[nH]c2c1C(=O)CC(c1ccc(F)cc1)C2 (stereo not drawn)	-16%[7.34 µM]	-24%[7.34 µM]
CCn1c(=NC(=O)c2ccco2)sc2cccc(F)c21	9%	-18%
COc1ccc(N2C(=NC(=O)C3CCCO3)SC3CS(=O)(=O)CC32)cc1 (stereo not drawn)	-13%	-19%
Nc1c(C(O)(C(F)(F)F)C(F)(F)F)ccc2ccccc12	-30%	-28%
CNC1(c2nnnn2-c2ccccc2C)CCOC(C)(C)C1 (stereo not drawn)	-13%	-1%
Cc1ccc(C(=O)Cn2c3[n+](c4ccccc42)CC(O)CS3)cc1 (stereo not drawn)	i	-7%
COc1ccccc1CNC(=O)c1cc(-c2ccccc2)nn1CC1CC(c2cccc([N+](=O)[O-])c2)=NO1 (stereo not drawn)	-14%	-13%
COc1ccc2c(c1)OC[C@H]1[C@H]2N2C(=O)CN(CCc3c[nH]c4ccccc34)C(=O)[C@@]2(C)[C@H]1c1ccccc1	-29%	-29%
CC1=C(c2ccc(C)c(C)c2)S(=O)(=O)N=C1N1CCC(C(=O)NCCc2ccc(Cl)cc2)CC1	-9%[7.34 µM]	-16%[7.34 µM]
CSc1cccc(NS(=O)(=O)c2cn(C)c(C)n2)c1	-6%	-1%
CCC(CC)c1nnc(NC(=O)Cc2cccs2)s1	-15%	6%
O=C(O)CNC(=O)c1ccccc1F	x	30%[activator]
CCOC(=O)C1(Cc2ccccc2C(F)(F)F)CCN(C(=O)c2cc(C(C)=O)n[nH]2)CC1	-13%	-4%
CC(C)C[C@@H](COCc1ccc([N+](=O)[O-])cc1)N1CCN(C(=O)c2ccc(C(F)(F)F)cc2)CCC1=O	19%	-6%
CCC(C)C(=O)Nc1nc2ccc(S(C)(=O)=O)cc2s1 (stereo not drawn)	-26%	-20%
O=C(Cn1nc2n(c1=O)-c1ccccc1SC2)N/N=C/c1cccs1	-3%	9%
COCCOC(=O)c1c(C)oc2ccc(OCC=C(C)C)cc12	-12%	-1%
CCOC1=C2CN(S(=O)(=O)c3ccc(C)cc3)[C@H](c3ccccc3)C[C@@H]2N(S(=O)(=O)c2ccccc2C)[C@H](c2ccccc2)C1	5%	0%
CC(C)(C)NC(=S)N1CCn2cccc2C1c1cccnc1 (stereo not drawn)	i	-1%
COc1ccc(S(=O)(=O)NCC(c2ccc(N(C)C)cc2)N2CCc3ccccc32)cc1OC (stereo not drawn)	-12%	-8%
Cc1nnc(SCC(=O)N2CCN(c3ccccc3F)CC2)n1C1CC1	-10%	-1%
COc1ccc(S(=O)(=O)N2CCOCC2)c(C)c1C	-21%	-3%

The final 7 compounds of the part above lead into the next:
SMILES	Vaccinia mCherry	VACV Venus inh
O=C(Cn1nc2n(c1=O)-c1ccccc1SC2)N/N=C/c1cccs1	-3%	9%
COCCOC(=O)c1c(C)oc2ccc(OCC=C(C)C)cc12	-12%	-1%
CCOC1=C2CN(S(=O)(=O)c3ccc(C)cc3)[C@H](c3ccccc3)C[C@@H]2N(S(=O)(=O)c2ccccc2C)[C@H](c2ccccc2)C1	5%	0%
CC(C)(C)NC(=S)N1CCn2cccc2C1c1cccnc1 (stereo not drawn)	i	-1%
COc1ccc(S(=O)(=O)NCC(c2ccc(N(C)C)cc2)N2CCc3ccccc32)cc1OC (stereo not drawn)	-12%	-8%
Cc1nnc(SCC(=O)N2CCN(c3ccccc3F)CC2)n1C1CC1	-10%	-1%
COc1ccc(S(=O)(=O)N2CCOCC2)c(C)c1C	-21%	-3%
CC(C)OCC(O)CCc1n[nH]c(=S)n1-c1ccccc1 (stereo not drawn)	i	-4%
CCc1cc2cc(C)cc(C)c2nc1SCC(=O)N1CCCC1	-13%	-2%
CC1(C(=O)NS(=O)(=O)C2CC2)CCCN(C(=O)Cc2ccc3ccccc3c2)C1 (stereo not drawn)	15%	6%
CN=c1sc2ccccc2n1CC(O)c1ccccc1 (stereo not drawn)	-21%	-13%
COC(=O)c1ccc2c(=O)n(Cc3ccc(C(=O)NCCCN4CCOCC4)cc3)c(=S)[nH]c2c1	i	-23%
COc1cc(C(=O)O)cc(NC(=O)c2cccs2)c1OC	-14%	-21%
CC(/C=C(\C)Nc1ccccc1)=Nc1ccccc1	-7%	-13%
CCOc1ccc(-n2c(C)c3c(C)nnc(C)c3c2C)cc1	u	u
COC(=O)CC1SC(=O)NC1=O (stereo not drawn)	-14%	-12%
CC(=O)N1N=C(c2ccc3ccccc3c2)OC1(C)C	-12%	-18%
O=C(CSc1nnc(-c2ccc(F)cc2)o1)N1CCCc2ccccc21	-21%	-17%
CSc1ccc(C(=O)C2CCCN(C(=O)CCc3cnn(C)c3)C2)cc1 (stereo not drawn)	i	-8%
Cc1cc(C)cc(CC(=O)N2CCC2(C)C(=O)NS(=O)(=O)Cc2ccccc2)c1 (stereo not drawn)	i	-5%
CN(Cc1ccccc1)C(=O)COC(=O)C1CCN(S(=O)(=O)c2ccc(Cl)c(C(F)(F)F)c2)CC1	i	2%
O=C(CN1N=C(c2ccc(Cl)cc2)CCC1=O)NCCc1ccccc1	-16%	-6%
CCN(CC(=O)Nc1ccccc1OC)C(=O)CSCC(=O)Nc1ccc(OC)cc1	-14%	4%
Cc1ccc(N(CC(=O)NCCc2ccccc2C)S(=O)(=O)N(C)C)cc1	-2%	-5%
O=C1CC(c2ccccc2)CC(=O)N1c1ccc(C(F)(F)F)cc1	i	-9%
CNC(=O)CSc1nc2cc(S(=O)(=O)Nc3ccc(OC)cc3)ccc2o1	-6%	-11%
CSC1=NCCN1C(=O)c1ccc(S(=O)(=O)N2CCOCC2)cc1	i	-8%
Clc1ccccc1Cn1nnc(-c2cccs2)n1	x	-16%
CCc1nnc(NC(=O)CSc2nnc(C)n2Cc2ccccc2)s1	-4%	-7%
CCOc1ccc(NS(=O)(=O)c2ccc(NS(=O)(=O)c3cccs3)cc2)cc1	i	-6%
COc1ccc2nc(N3CCN(C(=O)CS(=O)(=O)c4ccc(C)cc4)CC3)sc2c1	u	u
Fc1ccc(/C=N/n2cnn(Cc3ccccc3Cl)c2=S)cc1	-2%	-10%

(next part)
SMILES	Vaccinia mCherry	VACV Venus inh
CCC1CCCCN1CCCNC(=O)c1cn(CC)c2ccc(S(=O)(=O)N3CCc4ccccc4C3)cc2c1=O (stereo not drawn)	i	-20%
O=C(Cc1cccs1)Nc1ccc(C(=O)O)cc1	x	-16%
CCN(CC)S(=O)(=O)c1ccc(N2CCCC2)c(NC(=O)CN2C(=O)NC3(CCCC3)C2=O)c1	-10%	-7%
CN1c2ccccc2-c2nc(SCC(=O)Nc3ccccc3)ncc2S1(=O)=O	-6%	-9%
COc1cccc(CNCc2cccn2-c2nnc(N3CCN(c4ccccc4)CC3)s2)c1	-22%	-25%
O=C(NC1(C(F)(F)F)NC(=O)N(C2CCCCC2)C1=O)c1cccs1 (stereo not drawn)	-8%	-21%
CCc1nc2ccccc2n1CCC(=O)O	-26%	-18%
Cc1ccccc1Oc1ccc(NC(=O)C2CC=CCC2C(=O)O)cc1 (stereo not drawn)	i	-8%
C#CC1(O)CC(C)NCC1(C)CCC#N (stereo not drawn)	x	-18%
